Screening results (PubChem BioAssay)
2A StopGo – FMDV 2A StopGo reporter, luciferase signal; human cells with a luciferase reporter of 2A StopGo recoding; control for the full effect not named in the record; Potency, µM (top dose mostly 57.9 µM), inactives show at the top dose signal change, negative = less light; AID 1159524; 1.2% of 410,000 active; active = well fitted falling curve with a large enough effect; inconclusive = small, poorly fitted or top-dose-only effect; inactive = no such curve, though single readings can be large or run the other way; tested in HEK293T cells; further: on the % scale 0 is the no-effect control and ±100 the full control effect; nearly all actives have a fitted effect of over 45% in size; luciferase light after 4 h
SARS PLpro yeast – inhibitors of SARS-CoV papain-like protease in yeast. S. cerevisiae expressing SARS-CoV PLpro, growth rescue; control for the full effect not named in the record. Potency, µM (highest dose often 32.9 µM), for the others: top-dose activity, positive = growth rescue. 0.19% of 330,000 active. AID 485353; further: 0% is about no effect; nearly all actives have a fitted effect of over 55% in size; growth read by luminescence after 48 h
MARV entry inh – inhibitors of Marburg virus binding or cell entry; Marburg virus pseudotyped entry inhibition, cell reporter; control for the full effect not named in the record; about a third of the inactives were read at about 46 µM; Potency, µM (doses to about 37.8 µM), inactives show top-dose activity change, negative = inhibition, most hits filed as inhibitors; 1.8% of 300,000 active; active = well fitted inhibition curve with a large enough effect; inconclusive = small, poorly fitted or top-dose-only effect, or effect the other way; inactive = flat fitted curve, though single readings scatter; tested in HEK293 cells; about a fifth of its hits are not listed in these tables; further: on the % scale 0 is the no-effect control and ±100 the full control effect; luciferase read-out
Cruzain noTriton – cruzain (T. cruzi) inhibition without detergent; P25779; 2.3% of 200,000 active; Potency, µM, inactives show max response, negative = inhibition, most hits filed as inhibitors; purified cruzain, Z-FR-AMC fluorescence, no detergent; active means well fitted curve in the direction sought with a large enough effect; inconclusive means small, poorly fitted or top-dose-only effect, or another doubt; inactive means no such curve, though single readings can be large; an effect the other way counts as inactive or inconclusive;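 further: plate controls were enzyme without inhibitor for no effect and buffer without enzyme for full effect; nearly all actives have a fitted effect of over 40% in size; top concentration of the series not given in the record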
Target sequence (P25779 123-467 limits assumed): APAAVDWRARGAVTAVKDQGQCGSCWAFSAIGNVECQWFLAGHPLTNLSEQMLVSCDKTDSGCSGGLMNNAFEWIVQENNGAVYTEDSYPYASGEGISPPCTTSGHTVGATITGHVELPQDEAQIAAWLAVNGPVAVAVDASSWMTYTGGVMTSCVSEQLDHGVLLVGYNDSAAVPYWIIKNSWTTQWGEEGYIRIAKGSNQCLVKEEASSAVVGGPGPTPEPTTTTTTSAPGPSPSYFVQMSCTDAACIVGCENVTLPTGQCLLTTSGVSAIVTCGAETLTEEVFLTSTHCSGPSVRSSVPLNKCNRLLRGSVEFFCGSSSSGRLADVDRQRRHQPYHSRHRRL
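Detergent-free condition (0.00005% Triton X-100) in acetate buffer pH 5.5 with DTT. 1.5 nM enzyme and compound were pre-mixed 15 min, then 2 uM Z-FR-AMC substrate added; reaction progress from fluorescence change between first and third reads (60 s).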
LASV entry inh – blocks Lassa virus binding to or entry into cells; Lassa virus pseudotype entry inhibition, cell reporter; control for the full effect not named in the record; Potency, µM (titrated, usually from 37.9 µM), for inactives: at the highest dose activity change, negative = inhibition, actives largely listed as inhibitors; 1.2% of 300,000 active; active means well fitted inhibition curve with a large enough effect; inconclusive means small, poorly fitted or top-dose-only effect, or effect the other way; inactive means flat fitted curve, though single readings scatter; tested in HEK293 cells; further: on the % scale 0 is the no-effect control and ±100 the full control effect; nearly all actives have a fitted effect of over 50% in size; luciferase read-out
Cruzain Triton – blocks cruzain activity in presence of Triton detergent; purified cruzain, Z-FR-AMC fluorescence, 0.01% Triton; 0.43% of 200,000 active; AID 1478; Potency, µM, for the others: max response, negative = inhibition, hits mostly inhibitors; P25779; active means well fitted curve in the direction sought with a large enough effect; inconclusive means small, poorly fitted or top-dose-only effect, or another doubt; inactive means no such curve, though single readings can be large; an effect the other way counts as inactive or inconclusive;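 further: plate controls were neutral wells for no effect and buffer without enzyme for full effect; nearly all actives have a fitted effect of over 40% in size; top concentration of the series not given in the record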
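Steps: dispense cruzain (1.5 nM final) in acetate buffer pH 5.5 with DTT and 0.01% Triton X-100; pin-transfer compounds; incubate 15 min RT; add Z-FR-AMC (2 uM final); read fluorescence every 30 s, using the 60 s intensity change.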
NS1 function inh – blocks influenza NS1 protein function; S. cerevisiae slowed by influenza A NS1, growth recovery by OD600; Potency, µM (doses to about 46.1 µM), inactives show at the top dose activity, positive = more growth; 0.4% of 270,000 active; further: actives are rising curves; nearly all actives have a fitted effect of over 50% in size
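S. cerevisiae expressing influenza A NS1, grown in glucose, washed, then diluted 1:100 into pH 6.0 -URA galactose medium with 23 nl compound. Growth recovery read as OD600; NS1-free strain serves as control.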
RE007 growth inh – less growth of the S. pombe RE007 Vpr strain | S. pombe RE007 Vpr strain, BacTiter-Glo ATP luminescence, 24 h; control for the full effect not named in the record | Potency, µM (titrated, usually from 92.2 µM), without a hit: top-dose activity change, negative = less growth | 0.21% of 360,000 active | AID 651644; active = well fitted falling curve with a large enough effect; inconclusive = small, poorly fitted or top-dose-only effect; inactive = no such curve, though single readings can be large or run the other way;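 further: on the % scale 0 is the no-effect control and ±100 the full control effect; nearly all actives have a fitted effect of over 50% in size; the assay follows cell death caused by Vpr and the record does not say whether a fall means rescue or toxicity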
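Fission yeast RE007 carrying one integrated HIV-1 vpr copy, seeded at OD 0.01 in PMG+AL medium with 23 nL pinned compound. Grown 24 h at 30 degrees; viability read by BacTiter-Glo luminescence after 5 min.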
* = called active by the depositor; ? = inconclusive; / = no result given; [ ] = dose if it differs, or a comment. Unless noted, the call rests on the fitted dose curve; in most records, active means well fitted rising curve with a large enough effect; inconclusive means small, poorly fitted or top-dose-only effect; inactive means no such curve, though single readings can be large or run the other way. Potency means the concentration at half of the fitted maximal effect.

SMILES | 2A StopGo | SARS PLpro yeast | MARV entry inh | Cruzain noTriton | LASV entry inh | Cruzain Triton | NS1 function inh | RE007 growth inh
COc1ccc(S(=O)(=O)N2N=C(c3cccc(NS(C)(=O)=O)c3)CC2c2ccco2)cc1 (stereo not drawn) | 9% | 3% | / | / | / | / | 11% | 3%
CN1CCCN(C(=O)COc2ccc(Br)cc2)CC1 | 0% | 3% | / | / | / | / | 5% | 7%
O=C(Nc1cccnc1)C1CCC(CNS(=O)(=O)c2cccc3nsnc23)CC1 (stereo not drawn) | ? | -2% | 10%[46.1 µM] | / | ? | / | -10% | 4%
CCC(CC)NC(=O)CSc1ccc(S(=O)(=O)N2CCCCC2)cn1 | -12% | 3% | 0% | / | 9% | / | / | -10%
COc1ccccc1Cn1c(=O)c2ccccc2n2c(SCC(=O)N3CCCCC3)nnc12 | -12% | 6% | ? | 17% | 2% | -2.1% | -3% | 0%
COC(=O)c1ccc(NC(=O)c2ccccc2N(C)S(C)(=O)=O)cc1 | -14% | 1% | 6%[46.1 µM] | -4% | -1% | 0.0% | 3% | -3%
CCOC(=O)C1CCN(C(=O)c2c(-c3c(Cl)cccc3Cl)noc2C)CC1 | ? | 0% | ? | 3% | 2% | 5.1% | -1% | 4%
CCCCN(CC)CCNC(=O)CN(C)S(=O)(=O)c1ccc2c(c1)c(=O)n(C)c(=O)n2C | -17% | 1% | 2% | 1% | 9% | 3.4% | -6% | 12%
Cn1c(SCC(=O)N/N=C/c2cc([N+](=O)[O-])ccc2O)nnc1-c1ccccc1 | -4% | 6% | ? | / | ? | / | 4% | 1%
CCOCCCNC(=O)N[C@@H](C)C(=O)OC | -10% | -1% | 16% | -1% | 0% | 1.5% | 5% | -5%
CC(=O)c1cccc(NC(=O)[C@H]2O[C@@H]3OC(C)(C)O[C@@H]3[C@H]3OC(C)(C)O[C@H]32)c1 | 3% | / | 13%[46.1 µM] | -1% | ? | -1.0% | / | /
COc1cc(C(=O)Nc2nnc(-c3sccc3C)s2)cc(OC)c1OC | -30% | 3% | ? | -10% | ? | 2.6% | 7% | 8%
CCOc1ccc(N(C(=O)c2ccc(Cl)cc2)S(=O)(=O)c2ccc3c(c2)n(C)c(=O)n3C)cc1 | -4% | / | 6%[46.1 µM] | -2% | -12%[46.1 µM] | 0.5% | / | /
Cc1ccc(C)c(OCCC(=O)OCC(=O)Nc2cc(S(=O)(=O)N3CCCCC3)ccc2C)c1 | -2% | 1% | -3% | / | 2% | / | / | -28%
COc1cccc(NC(=O)CN(C)C(=O)c2ccc(NC3CC3)c([N+](=O)[O-])c2)c1 | -16% | 2% | -6% | / | -1% | / | / | -22%
O=C(COC(=O)c1ccccc1C(=O)N1CCN(c2ccc(F)cc2)CC1)NCc1ccccc1 | 25µM* | 1% | ? | ? | ? | 1.0% | -24% | 3%
C=CCn1c(SCc2ccc(C#N)cc2)nnc1-c1cccc(OC)c1 | 0% | 13% | -20%[46.1 µM] | 1% | -2% | 0.9% | -118% | -3%
CCCCC(NC(=O)c1ccc(Cl)cc1)C(=O)O (stereo not drawn) | -14% | 0% | 16% | 1% | 6% | -6.5% | 2% | 12%
CCCOc1ccc(CNC(=O)Cn2ncc3ccccc32)cc1 | 25% | 1% | / | / | / | / | 9% | 3%
O=c1cc(NCCc2ccccc2)c2ccccc2o1 | -8% | -3% | -23%[46.1 µM] | / | / | / | -53% | -5%

In another format: 2 of the compounds above.
Each structure is followed by: 2A StopGo	SARS PLpro yeast	MARV entry inh	Cruzain noTriton	LASV entry inh	Cruzain Triton	NS1 function inh	RE007 growth inh
- COc1cc(C(=O)Nc2nnc(-c3sccc3C)s2)cc(OC)c1OC
  -30%	3%	?	-10%	?	2.6%	7%	8%
- CCOc1ccc(N(C(=O)c2ccc(Cl)cc2)S(=O)(=O)c2ccc3c(c2)n(C)c(=O)n3C)cc1
  -4%	/	6%[46.1 µM]	-2%	-12%[46.1 µM]	0.5%	/	/

(more compounds)
SMILES | 2A StopGo | SARS PLpro yeast | MARV entry inh | Cruzain noTriton | LASV entry inh | Cruzain Triton | NS1 function inh | RE007 growth inh
CCOC(=O)N1CCC(Nc2nc3ccccc3nc2NS(=O)(=O)c2ccc(Cl)cc2)CC1 | / | -12% | ? | ? | 6% | -25% | -83% | -5%
O=C(CN1CCCCC1)N/N=C/c1ccc(Cl)cc1 | 39%[activator] | 4% | / | / | / | / | -3% | -12%
O=C(NNC(=O)c1cc2cc3ccccc3nc2s1)c1ccc(F)cc1 | -21% | 0% | -26% | 10µM* | 6% | ? | 17% | 11%
CCOC(=O)C1CCN(Cc2ccc(-c3ccccc3)cc2)CC1 | ? | -4% | / | / | / | / | -3% | 7%
Cc1cc(C(F)(F)F)nn1CC(=O)N1CCCC1 | -3% | 2% | 2%[46.1 µM] | -8% | 2% | 3.3% | -6% | 13%
Cc1ccc(C2c3c(oc4ccccc4c3=O)C(=O)N2c2nnc(C(C)C)s2)o1 (stereo not drawn) | -11% | -7% | -3% | ? | / | -6.6% | 20% | -15%
CCC(Sc1nc(C)cc(C)n1)C(=O)Nc1ccc(S(N)(=O)=O)cc1 (stereo not drawn) | 3% | 0% | -1% | / | 0% | / | -6% | 0%
C=CCNc1oc(-c2ccco2)nc1S(=O)(=O)c1ccccc1 | 7% | 2% | ? | / | 14% | / | -14% | 17%
N#C/C(=C/c1cn(-c2ccccc2)nc1-c1cccc(OCc2ccccc2)c1)C(=O)NCCCn1ccnc1 | 0% | -21% | 11µM* | ? | ? | -8.5% | ? | 1%
CC(=O)C1=C(C)Nc2ncnn2C1c1ccc(C)cc1 (stereo not drawn) | -16% | -1% | / | / | / | / | -1% | 1%
COc1ccccc1C(=O)NNc1ncc(C)s1 | 12% | 7% | -10% | / | 6% | / | 28% | -9%
COc1ccc(NC(=O)CCCc2nnc3n(CCC(C)C)c(=O)c4sccc4n23)c(OC)c1 | -6% | / | / | -6% | 0%[46.1 µM] | -0.6% | / | /
Clc1ccc(NC2=NCCCCC2)cc1 | -11% | 4% | 9% | 25% | -3% | 4.2% | 8% | -21%
CCOc1ccc(S(=O)(=O)Nc2ccc3c(c2)CCCN3S(=O)(=O)c2ccc(C)cc2)cc1 | 3% | / | / | ? | ? | -1.7% | / | /
COc1cccc(C(=O)NCCS(=O)(=O)NC(C)CCc2ccccc2)c1 (stereo not drawn) | -15% | -1% | -17% | / | 15% | / | / | 4%
O=C(CSc1cn(CCNC(=O)c2ccccc2)c2ccccc12)NCc1ccco1 | -23% | -1% | / | -8% | / | 2.0% | -6% | 10%
COc1cc(C(=O)NC(=S)N2C[C@H]3C[C@H](C2)c2cccc(=O)n2C3)cc(OC)c1OC | -4% | 3% | / | / | / | / | -1% | -12%
NC(=O)NC(=O)C(Nc1ccc2c(c1)CCC2)c1ccccc1 (stereo not drawn) | 7% | 0% | ? | / | -5%[46.1 µM] | / | 11% | 1%
Cc1ccnc(SCCn2c(N3CCCCC3)nc3c2c(=O)n(C)c(=O)n3C)n1 | -17% | -4% | 14% | 0% | 5% | 2.3% | -46% | -9%
CCOC(=O)c1cc(C)sc1/N=C/C1=C(O)CCCC1=O | -6% | -11% | 10% | -5% | 3% | -4.3% | 25% | -29%
CC1CCN(C(=O)CSc2nnc(Cc3cccn3C)n2CCc2ccccc2)CC1 | 1% | -15% | ? | 18% | 2% | -0.7% | ? | -11%
CN(CCC#N)S(=O)(=O)c1cc2c3c(c1)CCN3C(=O)CC2 | -11% | -1% | / | / | / | / | 12% | 3%
CCOC(=O)NC(=O)c1cn(Nc2ccccc2C(F)(F)F)c(=O)[nH]c1=O | 0% | 2% | 3%[46.1 µM] | / | -2% | / | 0% | 6%
CC(=O)Oc1c(I)cc(I)cc1C(=O)Nc1ccc(Cl)cc1 | ? | -20% | ? | / | 13µM* | / | -77% | 4%
Brc1ccc(OCCN2CCOCC2)cc1 | 12% | -7% | ? | / | 2% | / | 4% | -7%
Cn1c(=O)c(=O)n(C)c2cc(S(=O)(=O)N3CCc4ccccc43)ccc21 | -26% | 5% | 9% | -1% | -1% | 1.6% | -1% | 5%
COC(=O)c1ccc(NC(=O)c2ccc3nc(C)sc3c2)cc1 | -5% | -1% | ? | / | 9% | / | 8% | -4%
COc1ccccc1C(=O)N1CCN(Cc2nc(CC3CC3)no2)CC1 | 7% | 0% | 3%[46.1 µM] | / | 9%[46.1 µM] | / | -4% | -13%
O=C(NCCN1CCOCC1)c1ccc2c(c1)N(Cc1ccc(Cl)cc1)CCS2 | -16% | 1% | / | / | / | / | 2% | 23%
CC1CN(c2nc(-c3ccccc3)nc3ccccc23)CC(C)O1 (stereo not drawn) | -27% | -6% | -15% | 8% | 12% | -3.5% | -27% | -9%

In the list so far, 8 contain an aryl thioether with sulfur outside any ring:
SMILES | 2A StopGo | SARS PLpro yeast | MARV entry inh | Cruzain noTriton | LASV entry inh | Cruzain Triton | NS1 function inh | RE007 growth inh
CCC(CC)NC(=O)CSc1ccc(S(=O)(=O)N2CCCCC2)cn1 | -12% | 3% | 0% | / | 9% | / | / | -10%
COc1ccccc1Cn1c(=O)c2ccccc2n2c(SCC(=O)N3CCCCC3)nnc12 | -12% | 6% | ? | 17% | 2% | -2.1% | -3% | 0%
Cn1c(SCC(=O)N/N=C/c2cc([N+](=O)[O-])ccc2O)nnc1-c1ccccc1 | -4% | 6% | ? | / | ? | / | 4% | 1%
C=CCn1c(SCc2ccc(C#N)cc2)nnc1-c1cccc(OC)c1 | 0% | 13% | -20%[46.1 µM] | 1% | -2% | 0.9% | -118% | -3%
CCC(Sc1nc(C)cc(C)n1)C(=O)Nc1ccc(S(N)(=O)=O)cc1 (stereo not drawn) | 3% | 0% | -1% | / | 0% | / | -6% | 0%
O=C(CSc1cn(CCNC(=O)c2ccccc2)c2ccccc12)NCc1ccco1 | -23% | -1% | / | -8% | / | 2.0% | -6% | 10%
Cc1ccnc(SCCn2c(N3CCCCC3)nc3c2c(=O)n(C)c(=O)n3C)n1 | -17% | -4% | 14% | 0% | 5% | 2.3% | -46% | -9%
CC1CCN(C(=O)CSc2nnc(Cc3cccn3C)n2CCc2ccccc2)CC1 | 1% | -15% | ? | 18% | 2% | -0.7% | ? | -11%
